# D2 ag: activates the human D2 dopamine receptor | DiscoveRx PathHunter D2 beta-arrestin, luminescence, 90 min; 100% = 57 uM dopamine signal | activation, % (concentration not given with the values) | hit rate 0.084% among 360,000 | AID 624465; in the data active = activation above about 40%; inconclusive = about 15% to 40%; inactive = below about 15%; further: compound concentration not given in the record; the text of the record calls up to 30% inactive
#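 Agonist mode: compounds alone added to overnight-plated D2 PathHunter cells for 90 min at 37 C, with 57 uM final dopamine (EC100) defining full response. Beta-arrestin recruitment detected by chemiluminescent reagent, read after 1 h at ambient temperature.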
# CtBP-E1A inh: inhibitors of CtBP/E1A interaction | AlphaScreen GST-E1A/His-CtBP binding, 1536-well; active compounds read low; control for the full effect not named in the record | activity change, % (test concentration not listed) | hit rate 0.49% among 340,000; in the data active means activity change below about -65%; inconclusive means about -30% to -65%; inactive means above about -30%; further: on the % scale 0 is the no-effect control and ±100 the full control effect
#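 Steps: dispense buffer (Tris pH 8.0, NaCl 300 mM, TCEP 1 mM, BSA, Tween 20); add 5X protein mix (GST-E1A, His-CtBP, 125 nM each); pin 23 nL compound; 2 h at 37 °C, dark; add 5X beads (50 ug/mL); 1 h; read.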
# D2 potentiator: potentiates the human D2 dopamine receptor allosterically; DiscoveRx D2 beta-arrestin cells, luminescence, 90 min; 100% = 57 uM dopamine signal; potentiation, % (concentration not given with the values); hit rate 0.23% among 360,000; active = potentiation of 50% or more; inconclusive = 30% to 50%; inactive = 30% or less;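 further: compound concentration not given in the record; tested on top of an EC20 dose of dopamine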
#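 D2 cells co-treated with compound plus 50 nM dopamine (EC20) for 90 min at 37 deg C to detect potentiation. Beta-arrestin recruitment was read as enzyme-fragment luminescence after 1 h at ambient temperature. Full response was set by 57 uM dopamine.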
# PINK1 modulator: PINK1 expression modulation; hit rate 0.2% among 410,000; AID 624263; Potency, µM (series often up to 76.6 µM), inactives show at the top dose activation (PINK1 increase), hits mostly activators; PINK1 immunofluorescence, high-content cytometry, 24 h; active = well fitted activation curve with a large enough effect; inconclusive = small, poorly fitted or top-dose-only effect; inactive = flat fitted curve, though single readings scatter; cell line not stated here;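 further: potency means the concentration at half of the fitted maximal effect; % of control where 0% means no effect; nearly all actives have a fitted effect of over 65% in size; a mitochondrial uncoupler was the plate control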
#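 A stable cell line was treated with compounds at 5 concentrations for 24 hours, with CCCP as control. PINK1 levels and mitochondrial localization were measured by immunofluorescence with mitochondrial, cell and nuclear markers after fixation, read by laser-scanning cytometry.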
# TRPML1 agonist: agonists of human TRPML1 channel. Q9GZU1. TRPML1-expressing cells, Ca2+ dye fluorescence, FDSS; host cell line not named in the record; reference of the full effect not given here. activation, % (test concentration not listed). hit rate 0.12% among 410,000. AID 624414; in the data active = activation above about 50%; inconclusive = about 30% to 50%; inactive = below about 30%; further: 0% is about no effect; the text of the record puts the active cut at 80%
#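 In this qHTS format, compounds were pin-transferred onto Ca8-dye-loaded TRPML1-DL cells induced with Tet overnight, and intracellular Ca2+ fluorescence was recorded kinetically for 110 s after a 10 s baseline. A subsequent 4uM final 54-4 (EC80) addition followed by a second 110 s read served as the antagonist phase.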
# Six1-Eya2 inh: Six1/Eya2 interaction inhibition; AID 651725; activity change, % (no concentration beside the values); AlphaScreen GST-Six1/His-Eya2 binding, biochemical; active compounds read low; control for the full effect not named in the record; hit rate 0.56% among 360,000; in the data active = activity change below about -65%; inconclusive = about -30% to -65%; inactive = above about -30%; further: on the % scale 0 is the no-effect control and ±100 the full control effect
# Target sequence (O00167 whole entry, looked up): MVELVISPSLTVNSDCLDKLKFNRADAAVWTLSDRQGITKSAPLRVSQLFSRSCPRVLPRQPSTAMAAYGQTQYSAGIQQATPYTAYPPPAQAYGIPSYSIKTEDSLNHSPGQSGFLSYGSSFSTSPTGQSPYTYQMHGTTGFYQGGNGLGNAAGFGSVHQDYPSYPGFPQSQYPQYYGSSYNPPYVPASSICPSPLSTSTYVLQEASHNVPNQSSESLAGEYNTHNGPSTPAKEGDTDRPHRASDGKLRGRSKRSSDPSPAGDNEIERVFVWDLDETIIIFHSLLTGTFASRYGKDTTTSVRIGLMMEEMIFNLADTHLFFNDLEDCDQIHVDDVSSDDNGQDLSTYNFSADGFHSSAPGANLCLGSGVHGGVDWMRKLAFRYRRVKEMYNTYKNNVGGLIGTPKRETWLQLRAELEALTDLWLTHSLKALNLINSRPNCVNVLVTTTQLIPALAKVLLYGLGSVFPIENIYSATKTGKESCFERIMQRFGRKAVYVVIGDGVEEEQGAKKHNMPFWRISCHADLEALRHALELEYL
# Target sequence (Q15475 whole entry, looked up): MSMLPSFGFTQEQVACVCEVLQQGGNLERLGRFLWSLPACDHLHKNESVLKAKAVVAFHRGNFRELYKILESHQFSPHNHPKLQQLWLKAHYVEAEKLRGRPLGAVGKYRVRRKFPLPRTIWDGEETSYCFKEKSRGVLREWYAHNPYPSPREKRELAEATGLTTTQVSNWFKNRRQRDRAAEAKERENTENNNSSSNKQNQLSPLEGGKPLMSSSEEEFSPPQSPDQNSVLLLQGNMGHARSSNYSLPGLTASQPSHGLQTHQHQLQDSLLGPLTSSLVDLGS
#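 AlphaScreen with GST-Six1 and His-Eya2 (5X mix: 250 nM and 500 nM), glutathione donor and nickel acceptor beads; buffer 50 mM Tris pH 8.0, 300 mM NaCl, 1 mM TCEP; 1 h at 37 C in the dark.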
# The depositor's hits bear a star; ? = inconclusive; . = no result given; & = joins results of further samples; [ ] = remark or other dose.
# Each structure is followed by: CtBP-E1A inh	D2 ag	Six1-Eya2 inh	PINK1 modulator	TRPML1 agonist	D2 potentiator
O=C(O)c1ccccc1CSc1nnc2c(n1)[nH]c1ccccc12
  ?	1.2	?	-2.0%	-0.2	-4.3
COc1c2ccoc2nc2c(OC)c(OCC(O)C(C)(C)O)ccc12 (stereo not drawn)
  -1.5	-4.3	-2.2	0.1%&0.0%	-0.1	-16.0
C=CCN1C=CC(=O)CC1
  5.4	3.6	5.1	0.7%	0.2	12.0
CCCn1cc(CN2CCC(n3nccc3NC(=O)C(OC)c3ccccc3)CC2)c(C)n1 (stereo not drawn)
  3.2	-0.3	0.2	1.5%	-0.7	-5.6
NC(=O)CC(NC(=O)Cc1cccc2ccccc12)c1ccc(NCc2ccc(F)cc2)c([N+](=O)[O-])c1 (stereo not drawn)
  -3.4	-2.7	-3.6	1.9%	0.0	-3.0
CN1CCN(c2oc(/C=C/c3ccccc3)nc2C#N)CC1
  8.3	0.2	-4.6	0.7%	-0.4	-4.6
COc1cccc(NC(=O)C(C)N2C(=O)c3ccccc3C2=O)c1 (stereo not drawn)
  5.7	-0.4	4.7	0.4%	-1.3	2.0
O=C(CSc1n[nH]c(=O)[nH]c1=O)Nc1ccc(SC(F)F)cc1
  -2.6	-0.9	-11.1	9.4%	0.5	-0.6
CC(O)C(NC(=O)OCc1ccccc1)C(=O)OCc1ccccc1 (stereo not drawn)
  -4.4	-0.2	8.2	0.7%	0.4	-4.1
Cc1cccc(N=Nc2c(N)n[nH]c2N)c1
  .	3.9	-2.7	0.1%	-0.7	-1.5
CCCCN(C)S(=O)(=O)c1cc(Br)cc2c1N(C(=O)C1CC1)CC2
  3.1	-3.7	0.8	0.8%	2.0	-17.5
COc1cc2c(cc1OC)C(c1cccc(Br)c1)CC(=O)N2 (stereo not drawn)
  2.9	-3.3	-8.9	2.3%	-0.3	1.3
CC(C)Oc1ccc(S(=O)(=O)N2CCOCC2)cc1NC(=O)CN1C(=O)NC2(CCCC2)C1=O
  -2.8	-2.2	9.0	-2.5%	1.0	-14.4
O=C(OCc1ccccc1)N1CCC2CC1c1cc(N3CCN(C(=S)NCCc4ccccc4)CC3)ccc12 (stereo not drawn)
  -13.5	-4.1	-18.1	2.9%	-0.5	-5.6
COc1ccc(Oc2coc3cc(OC(=O)/C=C/c4ccc(F)cc4)ccc3c2=O)cc1
  0.0	0.1	7.5	?	0.8	-24.2
COc1ccc(S(=O)(=O)N2CCOCC2)cc1NC(=O)CSc1nnc2c(n1)[nH]c1ccccc12
  ?	0.7	?	-0.2%	-0.2	-7.0
COc1ccc(/C=C/C(=O)N2CCN(S(=O)(=O)c3ccccc3)CC2)cc1OC
  .	-1.6	-10.2	0.5%	1.7	-2.6
COc1cccc(C(C)(O)c2nc(-c3ccccc3)cs2)c1 (stereo not drawn)
  9.3	10.9	10.7	4.7%	-0.4	-2.7
COc1ccc(C2(C)NC(=O)N(CC(=O)NC3(C#N)CCCCC3)C2=O)cc1 (stereo not drawn)
  9.9	-4.7	5.0	4.0%	0.1	5.8
CC(C(=O)O)c1n[nH]c(=O)c2ccccc12 (stereo not drawn)
  0.1	-1.4	5.0	?	2.5	0.3
COc1ccc(-c2c(C)c3cc(O)ccc3oc2=O)cc1OC
  .	0.0	-4.7	-0.5%	1.9	-1.8
O=C(Nc1ccccc1N1CCN(C(=O)c2ccc(Cl)cc2)CC1)c1cccc(F)c1
  -15.3	0.7	-4.8	0.4%	-0.3	0.6
COc1ccc(N(CC(=O)N2CCc3ccccc32)S(=O)(=O)c2c(C)n[nH]c2C)cc1
  -0.9	-1.4	-3.6	1.9%	1.5	-8.7
CN=CC1=C(O)C(C(=O)OC)C(C)(C)CC1=O (stereo not drawn)
  1.7	-1.4	0.4	0.8%	0.3	-3.8
COc1ccc(Cl)cc1NC(=O)NC(C)C
  .	2.2	0.8	1.2%	0.5	-16.0
CC1(C)CC(=O)C(C2C3=C(CC(C)(C)CC3=O)Oc3ccccc32)C(=O)C1 (stereo not drawn)
  -1.8	-4.4	-1.4	-1.1%	0.5	-12.2
O=C(c1ccc(NS(=O)(=O)c2cccc([N+](=O)[O-])c2)cc1)N1CCCCCC1
  1.4	5.9	2.5	-2.6%	-0.1	22.3
COc1cccc(C#Cc2cnc3c(c2)C(=O)N([C@@H](C)CO)C[C@H](C)[C@H](CN(C)C(=O)C2CCC2)O3)c1
  -22.0	-4.6	13.9	0.7%	3.3	-8.8
CCC(C)c1ccccc1N1CC(C(=O)N2CCN(S(=O)(=O)c3ccccc3Br)CC2)CC1=O (stereo not drawn)
  5.4	-3.6	-4.9	1.1%	-0.2	0.7
O=C(COC(=O)c1ccccc1)NCc1ccco1
  -7.8	-6.5	-7.6	6.1%	-0.9	7.7
O=C(N/N=C/c1ccco1)c1cccc(NC(=O)c2cccc(Cl)c2)c1
  -25.7	-1.9	-18.3	1.3%	0.5	-1.3
C(=C\c1ccccc1)/CNCC1CCCO1 (stereo not drawn)
  2.2	-3.0	4.2	0.0%	-0.6	-6.0
COc1ccccc1C1CC(=O)Nc2cc(C)c(C)cc21 (stereo not drawn)
  0.5	-0.2	-17.7	3.3%	0.6	-12.5
CSc1ccc(/C=C(\NC(=O)c2ccccc2)C(=O)NCCN2CCOCC2)cc1
  26.6	-5.8	-0.6	2.4%	0.2	-1.1
CC(=O)Nc1c(C)ccc(CNC(=O)COc2ccc(F)cc2)c1C
  4.9	8.8	0.0	0.5%	-0.5	-0.1
O=S(=O)(Nc1nc2ccccc2nc1Nc1ccc2c(c1)OCO2)c1ccccc1
  -0.2	-0.9	-0.6	2.8%	-0.3	9.1
C=CCn1c(Cc2ccc(OCC)cc2)nnc1SCC(N)=O
  -18.7	-3.1	1.9	?	-0.1	-10.8
O=C(NCc1ccco1)c1cccc(N2CCCC2=O)c1
  -1.8	-1.4	4.0	-1.5%	0.1	3.5
COc1ccc(C=O)c2[nH]c3c(Cl)ncnc3c12
  -14.3	5.0	-17.1	-0.3%	1.3	9.3
O=C(NCc1ccccc1F)C1CCCN1S(=O)(=O)c1ccc(F)cc1 (stereo not drawn)
  -10.9	5.2	15.5	-1.4%	0.0	-7.1
COC(=O)Cc1n[nH]c(=O)c2ccccc12
  10.9	-0.3	0.0	2.0%[38.3 µM]	1.1	3.5
N#C/C(=C\c1c[nH]c2ccccc12)C(N)=O
  .	0.4	-25.5	-1.0%	-0.4	2.7
C=C1C(O)C[C@@H](C(C)C)N(CC(C)C)S1(=O)=O (stereo partly drawn)
  0.5	-1.3	-1.2	1.2%	-0.9	-4.3
O=C(c1ccccc1)N1CCC(=O)N(C(CO)Cc2ccccc2)CC1 (stereo not drawn)
  -8.4	-4.7	-7.2	1.5%	0.4	-15.0
O=C(NCCN1CCN(c2ccccc2)CC1)c1cccc(Br)c1
  -11.7	7.7	-15.5	-1.1%[38.3 µM]	0.3	-1.6
Fc1ccc(CSc2nc3ccccc3[nH]2)cc1
  6.6	-0.8	0.8	3.1%[38.3 µM]	-0.5	-3.6
COc1ccc(C(=O)NCC(=O)N/N=C/c2c(C)[nH]c3ccccc23)cc1
  -7.1	1.2	-3.2	11.3%	-0.3	-26.9
COc1ccc(NC(=O)Nc2cccc3c2O[C@H](CN(C)Cc2ccc(-c4ccccc4)cc2)[C@@H](C)CN([C@H](C)CO)C3=O)cc1
  -2.2	-0.2	-7.1	1.9%	-0.7	1.6
O=C(O)CCN1C(=O)c2ccncc2C1=O
  -5.1	-1.5	-0.5	-13.5%[38.3 µM]	0.2	-1.0
CN(C)C(=O)c1ccc(-n2cccn2)nc1
  2.9	-6.3	5.3	0.1%	0.4	-10.5
CC(=O)Nc1ccccc1-c1nc2ccccc2nc1OCC(=O)c1ccc(Cl)cc1
  -18.6	-5.9	11.0	-2.7%	0.0	5.8
CCCc1cc(Nc2ccc(C)cc2)n2ncnc2n1
  -11.9	0.7	46.8	0.3%	-0.1	3.9
O=C(Cc1ccc(Cl)cc1)N/N=C/c1c(Cl)cccc1Cl
  1.0	-5.6	-5.4	7.2%	1.5	-17.4
CCCCn1c(N)c(N(CC(C)C)C(=O)CSc2nnc(C)n2-c2ccccc2)c(=O)[nH]c1=O
  8.0	1.5	4.8	3.1%	0.9	1.0
Oc1ccc2ccccc2c1/C=N/Nc1ccccc1
  10.7	8.6	-2.4	6.0%	-0.3	28.0
Cc1ccc(C(=O)NCC(=O)N(C)Cc2cccc(F)c2)s1
  -3.1	-6.3	13.9	-1.0%	0.3	-31.5
COc1ccc(CCNC(=O)COc2ccc3c(C)cc(=O)oc3c2)cc1OC
  15.0	-2.6	0.9	0.9%	-1.5	-8.2
Cc1ccc(S(=O)(=O)Nc2ccc3c(c2)CCC3)cc1
  16.9	2.5	5.1	?	1.0	7.5
Cc1ccc(CN2CC(C(=O)Nc3ncc(C)s3)CC2=O)cc1 (stereo not drawn)
  10.3	-2.2	0.1	7.3%	0.1	3.5
CCOC(=O)C1(Cc2cccc(F)c2)CCN(C(=O)Cn2cnnn2)CC1
  .	1.4	4.6	0.5%	0.7	-6.9

# Additional entries:
# Each structure is followed by: CtBP-E1A inh	D2 ag	Six1-Eya2 inh	PINK1 modulator	TRPML1 agonist	D2 potentiator
CCOC(=O)[C@H]1[C@H]2COc3ccc(C)cc3[C@@H]2N2C(=O)c3ccc(C)cc3NC(=O)[C@@]12C
  -1.7	-1.2	-3.4	6.8%	1.2	-15.1
Cn1c(SCc2nc3ccccc3c(=O)[nH]2)nc2ccccc21
  -17.8	-3.1	3.3	-0.3%	0.0	-11.2
O=C1CSc2ccc(S(=O)(=O)NCc3ccccc3Cl)cc2N1
  .	-1.7	1.6	0.6%	0.9	-3.5
CCOC(=O)N1CCN(C(=O)CSc2nnc(-c3cc(OC)cc(OC)c3)o2)CC1
  4.6	0.5	1.1	0.7%	0.6	-0.8
O=C1CC(c2ccc(F)cc2)CC(O)=C1C=NCCN1CCN(C(=O)Nc2ccccc2)CC1 (stereo not drawn)
  7.8	-0.2	-0.1	-2.0%	-0.6	-2.5
O=c1[nH]c2ccc(NC(=S)Nc3ccc(Cl)cc3Cl)cc2[nH]1
  6.8	-0.2	2.2	0.0%[38.3 µM]	0.2	-9.9

# Three records picked at random from the list so far, as already listed:
# Each structure is followed by: CtBP-E1A inh	D2 ag	Six1-Eya2 inh	PINK1 modulator	TRPML1 agonist	D2 potentiator
CCOC(=O)[C@H]1[C@H]2COc3ccc(C)cc3[C@@H]2N2C(=O)c3ccc(C)cc3NC(=O)[C@@]12C
  -1.7	-1.2	-3.4	6.8%	1.2	-15.1
CCOC(=O)N1CCN(C(=O)CSc2nnc(-c3cc(OC)cc(OC)c3)o2)CC1
  4.6	0.5	1.1	0.7%	0.6	-0.8
Cn1c(SCc2nc3ccccc3c(=O)[nH]2)nc2ccccc21
  -17.8	-3.1	3.3	-0.3%	0.0	-11.2

# Assay outcomes deposited in PubChem BioAssay by National Center for Advancing Translational Sciences (NCATS).
